LT uptake inh: qHTS Assay for Anthrax Lethal Toxin Internalization | actives 0.67% (n = 70,000) | Potency, µM (series often up to 40 µM), inactives show top-dose activity change, negative = inhibition, most hits filed as inhibitors | Cells, anthrax lethal toxin internalization, FRET ratio (460/530); active = well fitted falling ratio curve with the 530 nm signal flat; inconclusive = other ratio curves, or a change in one channel alone; inactive = flat curves in the ratio and both channels; the % refers to the ratio; note: % is set by controls: 0 for no effect and ±100 for the full control effect; nearly all actives have a fitted effect of over 50% in size; tested in ME-180 cells; beta-lactamase reporter
Prx2 Sm inh: Schistosoma Mansoni Peroxiredoxins (Prx2); S. mansoni Prx2 activity coupled to TGR/GSH (TGR is thioredoxin glutathione reductase), NADPH fluorescence loss, qHTS; some inactives read as strong as hits; actives 0.07% (n = 65,000); AID 448, 2006; Potency, µM; Schistosoma mansoni peroxiredoxin 2 (Prx2); active means full or partial inhibition curve with a strong effect at the top dose; inconclusive means weaker partial or single-point curve; inactive means no accepted curve; note: series up to 57 µM; many of its hits are not listed in these tables
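Purified S. mansoni TGR and Prx2 in pH 7.4 phosphate buffer with EDTA and Tween-20 were preincubated with compounds for 15 min. Further NADPH/GSH was added, then a 2.5 mM H2O2 aliquot initiated turnover, followed kinetically by NADPH fluorescence.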
* = called active by the depositor; [ ] = remark or other dose. Potency is the fitted concentration of half-maximal effect. Only part of the results is shown (hit frequency here may not be typical).

`CCN(Cc1ccccc1)C(=O)C1CCN(Cc2ccc(OC)c(OC)c2OC)CC1` gave LT uptake inh 2% and Prx2 Sm inh >57.
Screening O=C(CN1C(=O)c2cccc3cccc1c23)Nc1ccc2c(c1)OCO2 returned LT uptake inh -16% and Prx2 Sm inh >57.
CCOc1ccc(OCC)c(NC(=O)C2CCN(c3ncccn3)CC2)c1 was read as LT uptake inh 0% and Prx2 Sm inh >57.
Screening CC(=O)NCCn1c(C)cc2ccccc21 returned LT uptake inh 7% and Prx2 Sm inh >57.
`CCOC(=O)N1CCN(c2cc(=O)n(C3CCCCC3)c(=O)[nH]2)CC1` gave LT uptake inh 10% and Prx2 Sm inh >57.
CC(=O)Nc1nc(C)c(S(N)(=O)=O)s1 was read as LT uptake inh 8% and Prx2 Sm inh >57.
For Cn1cccc1C(=O)N1CCC2(CCN(C(=O)Nc3cccc(F)c3)CC2)CC1 the results were LT uptake inh inconclusive and Prx2 Sm inh >57.
O=C(O)c1ccc(Cc2ccccc2C(=O)O)cc1 was read as LT uptake inh -3%[8 µM] and Prx2 Sm inh >57.
`Cn1c(SCc2nc3ccccc3[nH]2)nnc1-c1cccnc1` gave LT uptake inh 10% and Prx2 Sm inh >57.
For C/C(Sc1nnc(Cc2ccccc2)o1)=C(/O)c1ccccc1 the results were LT uptake inh -16% and Prx2 Sm inh >57.
`OCc1nc(CO)n(Cc2ccccc2)n1` gave LT uptake inh 0% and Prx2 Sm inh >57.
`CC1(c2ccccc2)NC(=O)N(CC(=O)Nc2cccc(C#N)c2)C1=O` (configuration not stated) gave LT uptake inh 10% and Prx2 Sm inh >57.
`CCC(=O)N1CCc2cc(Br)cc(S(=O)(=O)CC(=O)OC)c21` gave LT uptake inh -12% and Prx2 Sm inh >57.
For CC(CCc1ccco1)NC(=O)Cn1nc(Cc2ccncc2)c2ccccc2c1=O (configuration not stated) the results were LT uptake inh 1% and Prx2 Sm inh >57.
For COc1ccc(C2N(c3cc(Cl)ccc3OC)C(=O)C3CCCN32)cc1 (configuration not stated) the results were LT uptake inh -10% and Prx2 Sm inh >57.
Cc1nc2cc(O)ccc2n1C was read as LT uptake inh 2% and Prx2 Sm inh >57.
Screening Cc1ccc(CCNc2ccccc2)c[n+]1[O-] returned LT uptake inh 7% and Prx2 Sm inh >57.
For c1coc(CNc2ncnc3sc4c(c23)CCCCC4)c1 the results were LT uptake inh -21% and Prx2 Sm inh >57.
`CC(C)[C@@H](CC(=O)N[C@@H]1CCNC[C@H]1C(=O)N[C@H](CC(=O)N[C@@H](CCC(=O)O)CC(=O)O)Cc1ccccc1)NC(=O)C[C@H](Cc1c[nH]c2ccccc12)NC(=O)[C@@H]1CNCC[C@H]1N` gave LT uptake inh -8% and Prx2 Sm inh >57.
Cc1nc(SCC(=O)NCc2ccco2)c2c3c(sc2n1)CCCC3 was read as LT uptake inh -24% and Prx2 Sm inh >57.
Screening O=c1nc(-c2ccccc2)cc(-c2ccccc2)[nH]1 returned LT uptake inh -9%.
`Cc1ccc(CCN2CC(C(=O)NC3CCCC3)CC2=O)cc1` (configuration not stated) gave LT uptake inh -6% and Prx2 Sm inh >57.
Screening Cc1ccccc1OCc1nnc(SCC(=O)Nc2ccc3c(c2)oc2ccccc23)n1C returned LT uptake inh -24% and Prx2 Sm inh >57.
CC(=O)N1C2(C=CC1(C)C(=O)NCc1ccc(C)o1)CCCCC2 (configuration not stated) was read as LT uptake inh -1%.
For O=C(NCC1CCC(C(=O)O)CC1)c1cccnc1 (configuration not stated) the results were LT uptake inh -4% and Prx2 Sm inh >57.
For CC(C)C[C@H](NC(=O)[C@@H](O)[C@H](N)Cc1ccccc1)C(=O)O the results were LT uptake inh inconclusive and Prx2 Sm inh >57.
`CCCNC(=O)OC[C@H]1O[C@@H](CCO/N=C\[C@@H](NS(=O)(=O)c2ccc(C)cc2)[C@H](C)/C=C\CC(=O)OC)C=C[C@@H]1Oc1ccc(OC)cc1` gave LT uptake inh 3%[8 µM].
CCOC(=O)c1cccc(S(=O)(=O)N(CCO)Cc2cc3cc(OC)c(OC)cc3[nH]c2=O)c1 was read as LT uptake inh -7% and Prx2 Sm inh >57.
`Cc1ccnc(NC(=O)Nc2ccc(F)cc2)c1` gave LT uptake inh -23%.
`CN=C1CC(C)(C)CC(=O)/C1=C(/O)CCC(=O)NC` gave LT uptake inh 2% and Prx2 Sm inh >57.
Screening O=C(Nc1ccc(N2CCN(Cc3ccccc3)CC2)cc1)c1cccnc1 returned LT uptake inh inconclusive and Prx2 Sm inh >57.
`O=C1NCCCCC1NC1CC(=O)N(c2ccccc2)C1=O` (configuration not stated) gave LT uptake inh -14% and Prx2 Sm inh >57.
CCCCOC(=O)CCn1c(=S)oc2ccccc21 was read as LT uptake inh -16% and Prx2 Sm inh >57.
For O=C(Nc1nc(-c2ccc(S(=O)(=O)N3CCCCCC3)cc2)cs1)c1cccs1 the results were LT uptake inh inconclusive and Prx2 Sm inh >57.
For COc1ccccc1N(CCC#N)C(=O)CSc1ccc2c(c1)OCCO2 the results were LT uptake inh inconclusive and Prx2 Sm inh >57.
Screening O=C(COc1ccccc1Cl)NCCCN1CCOCC1 returned LT uptake inh -4% and Prx2 Sm inh >57.

2 compounds drawn at random from those above:
`CCCNC(=O)OC[C@H]1O[C@@H](CCO/N=C\[C@@H](NS(=O)(=O)c2ccc(C)cc2)[C@H](C)/C=C\CC(=O)OC)C=C[C@@H]1Oc1ccc(OC)cc1` gave LT uptake inh 3%[8 µM].
Screening O=C(COc1ccccc1Cl)NCCCN1CCOCC1 returned LT uptake inh -4% and Prx2 Sm inh >57.

Other results.
For CC1Cc2ccccc2N1c1ncnc2c1nnn2Cc1ccccc1 (configuration not stated) the results were LT uptake inh -1% and Prx2 Sm inh >57.
Screening CC1(C(=O)O)Sc2[nH]c(=O)sc2C2c3ccccc3OC(=O)C21 (configuration not stated) returned LT uptake inh 0% and Prx2 Sm inh >57.
Screening N#Cc1ccccc1Cn1cc(C(=O)c2cccs2)c2ccccc21 returned LT uptake inh -2% and Prx2 Sm inh >57.
Screening O=C(c1cccc(F)c1)N1CCC2(CCN(Cc3nccs3)CC2)CC1 returned LT uptake inh -15% and Prx2 Sm inh >57.
Cc1occc1C(=O)NC1CCCCCC1 was read as LT uptake inh -1%.
Cc1noc(C)c1COC(=O)C1CC(O)CN1S(=O)(=O)c1ccc(Cl)cc1 (configuration not stated) was read as LT uptake inh 10% and Prx2 Sm inh >57.
CC1(C)Cc2c(C#N)c(NCCCO)nc(-c3ccccc3)c2CO1 was read as LT uptake inh 9% and Prx2 Sm inh >57.
`N#Cc1c(/N=C/c2c(O)n(Cc3ccco3)c(=O)[nH]c2=O)sc2c1CCCC2` gave LT uptake inh -3% and Prx2 Sm inh >57.
`COc1ccc(-n2nc(C(=O)NCC(=O)NCc3ccco3)c3ccccc3c2=O)cc1` gave LT uptake inh 7% and Prx2 Sm inh >57.
CCOC(=O)c1c(N)sc(C(N)=O)c1C was read as LT uptake inh -2%.
For CCOC(=O)c1cc2c(N)c(C(=O)c3cc(C#N)c(SC)nc3C)sc2nc1C the results were LT uptake inh -9% and Prx2 Sm inh >57.
For COc1ccc(C2C(C(=O)N3CCN(c4ccccc4F)CC3)c3ccccc3C(=O)N2C)cc1 (configuration not stated) the results were LT uptake inh 6% and Prx2 Sm inh >57.
`CCn1c(C)cc2c(c1=O)C(c1ccccc1Br)C(C#N)=C(N)O2` (configuration not stated) gave LT uptake inh -3% and Prx2 Sm inh >57.
Screening COc1ncnc(NS(=O)(=O)c2ccc(N)cc2)c1OC returned LT uptake inh 4%[3.58 µM] and Prx2 Sm inh >26.
For CC(C)n1c(SCCCc2ccccc2)nc2c1c(=O)[nH]c(=O)n2C the results were LT uptake inh -1% and Prx2 Sm inh >57.
For COc1ccc(-c2nnc(SCc3nnc(-c4ccc(Cl)cc4)o3)n2-c2ccccc2)cc1 the results were LT uptake inh -5% and Prx2 Sm inh >57.
Cc1nnc(SCC(=O)N2CCC(c3noc4ccc(F)cc34)CC2)s1 was read as LT uptake inh -1% and Prx2 Sm inh >57.
`COC(=O)c1ccccc1NC(=O)C(C)NS(=O)(=O)c1ccc(OC)cc1` (configuration not stated) gave Prx2 Sm inh >57.
For Cc1ccc(S(=O)(=O)NCCCOC(=O)Nc2ccncc2)cc1 the results were LT uptake inh 16% and Prx2 Sm inh >57.
For O=C(Cn1nnc(-c2ccccc2F)n1)NCCc1ccccc1 the results were LT uptake inh -3% and Prx2 Sm inh >57.
`Cc1onc(-c2c(Cl)cccc2Cl)c1C(=O)NCC1CCCO1` (configuration not stated) gave LT uptake inh 0% and Prx2 Sm inh >57.
`O=C(NC1CCCCC1)c1ccc(S(=O)(=O)N2CCCCC2)cc1` gave LT uptake inh 2% and Prx2 Sm inh >57.
For CCOC(=O)CSc1nnc(CNC(=O)c2ccccc2OC)n1-c1ccc(OC)cc1 the results were LT uptake inh 19% and Prx2 Sm inh >57.
`Cc1cccc(OCCCc2c(C)n[nH]c2C)c1` gave LT uptake inh -10%.
`Cc1c(Cl)cccc1Nc1nc(N)nc(CSc2ncccn2)n1` gave LT uptake inh -3% and Prx2 Sm inh >57.
For CN(C)c1nc(N)nc(Cn2ccnc2)n1 the results were Prx2 Sm inh >57.
For CCOC(=O)c1ccccc1N/C=C1\CCCC1=O the results were LT uptake inh 22% and Prx2 Sm inh >57.
For CC(C)(C)N1C(=O)[C@H]2[C@H]3[C@H](O)[C@H](O)C/C(=N/NC(=O)OCc4ccccc4)[C@H]3CC[C@@H]2C1=O the results were LT uptake inh -1%[8 µM].
`COC(=O)C1=C(Cn2cnc3ccccc32)NC(=O)NC1c1cc(C)ccc1C` (configuration not stated) gave LT uptake inh -1% and Prx2 Sm inh >57.
Screening CCc1ccc2c(-c3cccc(Cl)c3)nc(=O)n(CC)c2n1 returned LT uptake inh inconclusive and Prx2 Sm inh >57.
`O=C(CC(=O)c1ccncc1)c1ccccc1` gave LT uptake inh 7%[8 µM] and Prx2 Sm inh >57.
`CCOC(=O)c1ccc2nc(C)c3c(c2c1)OC(C)C3` (configuration not stated) gave LT uptake inh -5%.
`CCCCCn1c(=NC(C)=O)c(C#N)cc2c(=O)n3cccc(C)c3nc21` gave LT uptake inh inconclusive and Prx2 Sm inh >57.
`COc1ccc(O)c(-c2cc(-c3cccs3)[nH]n2)c1` gave LT uptake inh inconclusive and Prx2 Sm inh >57.
`CCC(=O)Nc1cccc(NC(=O)c2cc3ccccc3o2)c1` gave LT uptake inh inconclusive.
`c1ccc(C2C3=C(Nc4ncnn42)c2ccccc2CCC3)cc1` (configuration not stated) gave LT uptake inh 8% and Prx2 Sm inh >57.
For CCCCCCNC(=O)C(C#N)c1nc2ccccc2nc1N1CCCC1 (configuration not stated) the results were LT uptake inh inconclusive and Prx2 Sm inh >57.
CC(C)OCCCNc1ncnc2c1[nH]c1ccccc12 was read as LT uptake inh -3% and Prx2 Sm inh >57.
For O=C(Nc1ccccn1)C(NS(=O)(=O)c1cccc2nsnc12)c1ccccc1 (configuration not stated) the results were LT uptake inh -7% and Prx2 Sm inh >57.
`CCCOc1ccccc1-c1nc(SCCC(=O)O)n[nH]1` gave LT uptake inh inconclusive and Prx2 Sm inh >57.
`COc1ncc2nc(-c3ccc(F)cc3)c(=O)n(-c3ccccc3)c2n1` gave LT uptake inh -8% and Prx2 Sm inh >57.
COc1ccc(CNC(=O)COC(=O)c2ccc3c(c2)OCCO3)cc1 was read as LT uptake inh 0% and Prx2 Sm inh >57.
Screening Cc1ccccc1N1C(=O)CC(N2CCC(C(N)=O)CC2)C1=O (configuration not stated) returned LT uptake inh inconclusive and Prx2 Sm inh >57.
For COc1ccc(CNc2nc3c(c(=O)n(Cc4ccc(Br)cc4)c(=O)n3C)n2C)cc1 the results were LT uptake inh -8% and Prx2 Sm inh >57.
Screening O=C1Nc2ccc(S(=O)(=O)N3CCCCCC3)c3cccc1c23 returned LT uptake inh 0%.
Screening CCN1CCN(c2nc3c(c(=O)[nH]c(=O)n3C)n2CCCSc2ncccn2)CC1 returned LT uptake inh inconclusive and Prx2 Sm inh >57.
`O=C(Nc1ccc(OC(=O)c2cccs2)cc1)c1ccco1` gave LT uptake inh inconclusive and Prx2 Sm inh >57.

Structures shown so far that contain a cyano group, in the order listed:
`CC1(c2ccccc2)NC(=O)N(CC(=O)Nc2cccc(C#N)c2)C1=O` (configuration not stated) gave LT uptake inh 10% and Prx2 Sm inh >57.
For COc1ccccc1N(CCC#N)C(=O)CSc1ccc2c(c1)OCCO2 the results were LT uptake inh inconclusive and Prx2 Sm inh >57.
Screening N#Cc1ccccc1Cn1cc(C(=O)c2cccs2)c2ccccc21 returned LT uptake inh -2% and Prx2 Sm inh >57.
CC1(C)Cc2c(C#N)c(NCCCO)nc(-c3ccccc3)c2CO1 was read as LT uptake inh 9% and Prx2 Sm inh >57.
`N#Cc1c(/N=C/c2c(O)n(Cc3ccco3)c(=O)[nH]c2=O)sc2c1CCCC2` gave LT uptake inh -3% and Prx2 Sm inh >57.
For CCOC(=O)c1cc2c(N)c(C(=O)c3cc(C#N)c(SC)nc3C)sc2nc1C the results were LT uptake inh -9% and Prx2 Sm inh >57.
`CCn1c(C)cc2c(c1=O)C(c1ccccc1Br)C(C#N)=C(N)O2` (configuration not stated) gave LT uptake inh -3% and Prx2 Sm inh >57.
`CCCCCn1c(=NC(C)=O)c(C#N)cc2c(=O)n3cccc(C)c3nc21` gave LT uptake inh inconclusive and Prx2 Sm inh >57.
For CCCCCCNC(=O)C(C#N)c1nc2ccccc2nc1N1CCCC1 (configuration not stated) the results were LT uptake inh inconclusive and Prx2 Sm inh >57.

Bioassay records: PubChem, National Center for Advancing Translational Sciences (NCATS)
